Beta cell apopt = beta cell apoptosis inhibition; AID 435005; actives 0.8% (n = 300,000); INS-1E cytokine-induced death, ATP luminescence, 48 h; percent of positive-control rescue, neutral wells zero; protection from apoptosis, % (test concentration not listed);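 active = all replicates at 75% or more, or half of them and the mean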;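 also: 0% = cytokine-treated negative control wells and 100% = positive control rescue; higher means more ATP so stronger rescue from cytokine killing; wells of about 40 µL received 100 nL stock; the first replicate is given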
Ecoli rRNA inh = inhibitors of bacterial rRNA selective over humanized ribosomes; GFP signal change (wild-type ribosome), % (test concentration not listed); AID 720706; E. coli WT GFP vs humanized-ribosome RFP mutants, fluorescence, 24 h; stronger effect = lower value; DMSO median 0, no signal -100; actives 1.6% (n = 350,000);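 active = significant combined selectivity score with lowered wild-type GFP, culture density cut under 30%, mutant RFP and density less affected; inactive = any of these conditions unmet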; also: one replicate is shown; some compounds called inactive have numbers as strong as hits
E coli growth = E. coli growth inhibition. AID 1053175. Escherichia coli growth, OD600, 23 h; stronger effect = lower value. actives 0.21% (n = 330,000). OD600 absorbance (no concentration beside the values);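 active = OD600 absorbance below the run mean of sample wells minus 3.6 SD, in any replicate, cut at about 0.56 in these data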;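 also: stock transfer was 300 nL into about 60 µL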
T cruzi repl = blocks replication of Trypanosoma cruzi; T. cruzi beta-gal in NIH3T3, luminescence, 90 h; inhibition, % (concentration not given with the values); actives 1.4% (n = 300,000); AID 1885;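 active = mean inhibition across valid replicates above about 55%, limit read from the data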;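 also: signal also drops with host cell toxicity which is not excluded here; 0% = plate median of DMSO wells and 100% = zero luminescence signal; higher percent means less beta-gal luminescence so fewer parasites; stock transfer was 50 nL into about 50 µL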
UCH37 inh = blocks the human deubiquitinase UCH37 | Q9Y5K5 | purified proteasome/UCH37, Ub-AMC cleavage fluorescence | inhibition, % (concentration not given with the values) | actives 0.33% (n = 330,000);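 active = mean of two replicates above 20%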;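 also: 0% = compound-free wells with enzyme and 100% = wells lacking proteasome; stock transfer was 100 nL into about 20 µL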
Target sequence (Q9Y5K5 whole entry, looked up): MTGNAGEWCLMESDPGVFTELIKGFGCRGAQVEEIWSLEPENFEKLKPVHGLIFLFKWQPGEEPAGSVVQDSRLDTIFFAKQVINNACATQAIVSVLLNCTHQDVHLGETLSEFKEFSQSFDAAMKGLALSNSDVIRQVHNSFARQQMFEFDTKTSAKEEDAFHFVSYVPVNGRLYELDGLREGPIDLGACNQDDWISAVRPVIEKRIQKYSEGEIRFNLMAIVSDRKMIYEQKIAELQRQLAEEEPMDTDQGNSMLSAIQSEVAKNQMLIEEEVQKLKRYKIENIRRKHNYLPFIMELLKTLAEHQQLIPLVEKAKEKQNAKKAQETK
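Material: human UCH37 enzyme supplied as purified proteasome complex. Measure: % inhibition of Ub-AMC cleavage fluorescence. Medium: pH 7.4 Tris-HCl (50 mM) with ovalbumin, ATP-MgCl2, DTT. Times: 30 min preincubation with enzyme, 25 min cleavage at room temperature. Detection: AMC fluorescence intensity at 355/460 nm.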
Bfl-1 A1 inh = inhibitors of the anti-apoptotic protein A1, read as caspase activation | caspase activation, % (test concentration not listed) | AID 2462 | MEF A1-2A-BIM cells, Caspase-Glo 3/7 luminescence, 3 h; percent of clofoctol response, vehicle zero | actives 0.066% (n = 330,000);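 active = over half of replicate activation scores above 10%, or exactly half above 10 with the replicate mean above 10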;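 also: wells of about 30 µL received 50 nL stock; many hits fall short of the cut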
MLL AF4-AF9 inh = blocks AF4 peptide binding to human AF9; AlphaScreen, biotin-AF4 peptide binding to FLAG-AF9; inhibition, % at 10 µM; actives 0.47% (n = 350,000); P42568;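 active = every replicate reaching a set inhibition limit, whatever the replicate mean, cut at about 25% in these data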;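 also: 0% = plate neutral control median and 100% = total signal loss; the record names both 10 and 1 µM as test concentration; the first replicate is given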
Target sequence (P42568 whole entry, looked up): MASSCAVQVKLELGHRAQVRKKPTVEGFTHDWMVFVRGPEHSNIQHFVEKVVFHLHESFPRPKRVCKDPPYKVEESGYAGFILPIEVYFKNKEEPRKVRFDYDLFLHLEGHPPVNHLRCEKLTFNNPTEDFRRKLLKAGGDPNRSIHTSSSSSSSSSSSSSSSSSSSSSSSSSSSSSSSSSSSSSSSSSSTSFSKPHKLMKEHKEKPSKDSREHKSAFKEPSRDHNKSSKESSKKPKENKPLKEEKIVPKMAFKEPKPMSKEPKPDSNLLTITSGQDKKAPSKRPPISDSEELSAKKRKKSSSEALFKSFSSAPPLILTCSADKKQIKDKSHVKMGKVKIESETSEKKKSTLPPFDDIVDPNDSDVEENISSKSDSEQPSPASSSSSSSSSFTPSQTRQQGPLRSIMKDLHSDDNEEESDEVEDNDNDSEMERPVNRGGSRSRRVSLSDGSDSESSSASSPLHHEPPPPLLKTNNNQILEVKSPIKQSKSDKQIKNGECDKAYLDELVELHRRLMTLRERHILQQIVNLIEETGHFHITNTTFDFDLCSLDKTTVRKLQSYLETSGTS
FGF22 binding = FGF22 (human) thermal shift binding; calls only at 9.99 µM; AID 651658; actives 1.5% (n = 340,000); recombinant FGF22 thermal shift, SYPRO orange fluorescence; percent of sucrose octasulfate shift, DMSO zero;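 active = melting point raised past a set limit in the mean and every replicate; three in four hits are not shown here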
Target sequence (Q9HCT0 whole entry, looked up): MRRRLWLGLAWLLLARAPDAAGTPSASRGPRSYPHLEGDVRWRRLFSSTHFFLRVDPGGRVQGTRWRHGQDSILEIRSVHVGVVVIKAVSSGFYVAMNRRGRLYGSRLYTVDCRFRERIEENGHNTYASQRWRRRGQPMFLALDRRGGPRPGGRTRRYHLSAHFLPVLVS
Ecoli rRNA inh OD600 = further read-out of Ecoli rRNA inh, marked with its call; OD600 change, %; measured here: OD600 growth;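 optical density of the mix in the first replicate; 0 = DMSO median and -100 = no signal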
Ecoli rRNA inh RFP = second read-out of Ecoli rRNA inh, no call of its own (marks repeat the call); RFP signal change, %; measured here: RFP humanized mutant strains;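 first replicate; 0 = DMSO median and -100 = no signal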
The depositor's hits bear a star; i = inactive; x = not tested or not shown. The list is partial, so the mix of outcomes need not match the whole.

SMILES	Beta cell apopt	Ecoli rRNA inh	Ecoli rRNA inh OD600	Ecoli rRNA inh RFP	E coli growth	T cruzi repl	UCH37 inh	Bfl-1 A1 inh	MLL AF4-AF9 inh	FGF22 binding
COC(=O)CCC(=O)N1CCCC(N2CCN(c3ccc(OC)cc3)CC2)C1 (centres undefined)	-1	8	8	-0.7	0.71	-6	-1.4	0.7	-0.6	i
CCOC(=O)N1CCN(C(=O)C2CCN(S(=O)(=O)N(CC)CC)CC2)CC1	0	x	x	x	0.73	-18	3.7	0.2	x	x
CC1CCN(CCCNC(=O)C2CCC(=O)N2C2CCCC2)CC1 (centres undefined)	1	x	x	x	0.68	-14	1.8	0.6	x	x
O=C(N/N=C/c1ccccn1)c1ccc(NC(=O)c2cccc([N+](=O)[O-])c2)cc1	4	0	11	1.4	x	-17	x	-0.9	4.2	x
Cc1c(NC(=O)CSc2nnc3c4ccccc4n(CCc4ccccc4)c3n2)c(=O)n(-c2ccccc2)n1C	4	x	x	x	0.78	33	-3.6	-1.0	x	x
C=CCOc1ccc(Cl)cc1CNC1CCCC1	-4	23	10	2.3	0.69	1	1.8	-0.1	-0.3	i
COC(=O)CSc1nc(SC)nc2c1sc1nc(-c3ccco3)c3c(c12)CC(C)(C)OC3	x	9	6	3.7	0.67	x	-2.0	x	4.7	i
O=C(O)c1[nH]c2ccc(Cl)cc2c1CC(=O)N1CCN(C(=O)c2ccco2)CC1	4	x	x	x	0.68	3	3.2	0.4	x	x
COc1cc([N+](=O)[O-])cc(/C=N/NC(=O)Cn2nccc2C)c1O	-5	1	2	-0.5	x	1	x	-2.0	-16	i
CC(C)CC(=O)Nc1nc2c(c(=O)[nH]1)CCCC2	8	x	x	x	0.7	6	0.4	0.6	x	x
Cc1cc(NS(=O)(=O)c2ccc(NC(=S)NC(=O)c3ccccc3)cc2)no1	-11	x	x	x	0.7	4	4.4	-4.7	x	x
CC(Sc1nnc(C2CC2)n1-c1ccccc1)C(=O)N1CCCC1 (centres undefined)	x	12	11	0.7	0.69	x	4.5	x	-2.8	i
COc1ccc2[nH]c3c(c2c1)CCN1C(=O)C(CC(=O)NCc2ccc(OC)c(OC)c2)C[C@H](C(=O)N2CCCCC2)[C@@]31CCc1ccccc1 (some centres undefined)	x	8	4	5.2	0.71	x	5.0	x	4.4	i
COc1ccc(S(=O)(=O)n2cnc3cc(C)c(C)cc32)cc1C	9	23	0	-0.3	0.68	-10	0.5	-0.5	5.9	i
Cc1cc2oc(=O)cc(CN3CCCCC3C)c2c(C)c1Cl (centres undefined)	-1	x	x	x	0.69	3	7.3	-0.1	x	x
CC(=O)c1sc(NC(=O)c2ccccc2F)nc1-c1ccccc1	2	-12	-4	0.7	0.74	8	3.0	-3.5	-0.9	i
Cc1nn(CC(=O)NCCN2CCOCC2)c(C)c1[N+](=O)[O-]	-12	x	x	x	0.69	-22	3.5	0.3	x	x
CCCCOC(=O)Nc1nc2ccccc2s1	-3	x	x	x	0.82	50	0.7	-0.1	x	x
CCOc1ccccc1NC(=O)c1ccc2c(c1)C(=O)N(CC)C2=O	1	12	6	1.3	0.62	-16	-9.7	-0.7	-3.2	i
CCc1sc(N(C(=O)Cc2ccccc2)c2ccc(F)cc2)nc1-c1ccccc1	9	x	x	x	0.74	2	24*	0.8	x	x
CCC(=O)NCCc1nc2cc(NC(=O)c3ccc(Cl)cc3)ccc2n1C	2	5	5	-0.8	0.64	1	5.8	0.8	-1.5	i
CC1(C)CC(=O)C2=C(C1)Nc1nc(SCCN3CCOCC3)[nH]c(=O)c1C2c1cccs1 (centres undefined)	-7	x	x	x	0.78	4	-8.7	1.0	x	x
Cc1cc2c(nn1)CCc1c-2no[n+]1[O-]	-2	-1	-3	-2.9	0.71	-3	6.3	0.2	x	i
Cc1cccc(OCC(=O)NC2CCCc3ccccc32)c1C (centres undefined)	-10	-5	-4	-0.7	0.71	19	2.2	-0.5	-0.8	x
COc1cc(/C=N/NC(=O)C(=O)N2CCCCCC2)ccc1O	x	1	1	1.9	x	-1	x	0.3	-2.4	i
CCOC(=O)c1sc2ncn(CC(=O)Nc3cc(C)on3)c(=O)c2c1C	x	-3	-13	1.6	0.71	x	-0.3	x	-1.8	i
OC1(CC#CCN2CCCCC2)c2ccccc2-c2ccccc21	1	19	-9	1.5	0.62	-4	6.5	0.4	x	i
O=C(NCCc1c[nH]c2ccccc12)C(=O)NCC(c1ccco1)N1CCN(c2ccccc2)CC1 (centres undefined)	2	x	x	x	0.66	4	-0.9	-0.8	x	x
CS(=O)(=O)N(CC(=O)Nc1ccccc1Sc1ccccc1)c1ccc(F)cc1	1	x	x	x	0.7	30	0.9	0.7	x	x
O=C(Nc1ccc(OC(F)F)c(Cl)c1)Nc1ccc2c(c1)OCO2	9	x	x	x	0.67	12	6.6	-0.1	x	x
CCOc1ccc(OCC(=O)N(CCC2=CCCCC2)c2c(N)n(Cc3ccccc3)c(=O)[nH]c2=O)cc1	x	3	17	-1.4	x	2	x	60*	-47	i
CC[n+]1c(/C=C2/C=C(C)CC(C)(C)C2)sc2ccc(OC)cc21	-5	x	x	x	0.74	37	-0.8	-0.3	x	x
CCNS(=O)(=O)c1ccc(NC(=O)c2ccccc2)cc1	4	x	x	x	0.67	-9	2.6	-1.7	x	x
CC(=O)[C@@H]1[C@@H](C(=O)c2ccccc2)[C@]2(C(=O)Nc3ccccc32)[C@H]2C=Cc3cc(F)ccc3N12	4	x	x	x	0.69	-3	-0.2	0.4	x	x
COc1ccc(NC(=O)c2cc3cc(OC)ccc3oc2=N)cc1	5	x	x	x	0.74	14	-0.5	-0.2	x	x
COc1cc(C(=O)NC(=S)Nc2ccc(Cl)c(C(=O)O)c2)cc(OC)c1OC	0	-14	-31	-4.3	0.73	-17	-0.2	0.1	x	x
CCCSc1nsc(NC(=O)C(c2ccccc2)c2ccccc2)n1	5	x	x	x	0.76	26	-2.3	-0.5	x	x
Cc1ccc2oc(-c3cccc(N)c3)nc2c1	7	-23*	-15*	-4.0*	0.64	12	-112	-0.2	-1.8	i
CCOC(=O)c1nnn(-c2nonc2N)c1-c1ccc(F)cc1	-3	1	-14	-3.1	x	-4	x	1.0	-0.8	i
COc1ccccc1OCc1nnc(SCC(=O)Nc2ccc(C)cc2)n1C	-5	x	x	x	0.68	-16	4.9	1.6	x	x

Among those listed so far, 3 have a furan ring, fused or not:
SMILES	Beta cell apopt	Ecoli rRNA inh	Ecoli rRNA inh OD600	Ecoli rRNA inh RFP	E coli growth	T cruzi repl	UCH37 inh	Bfl-1 A1 inh	MLL AF4-AF9 inh	FGF22 binding
COC(=O)CSc1nc(SC)nc2c1sc1nc(-c3ccco3)c3c(c12)CC(C)(C)OC3	x	9	6	3.7	0.67	x	-2.0	x	4.7	i
O=C(O)c1[nH]c2ccc(Cl)cc2c1CC(=O)N1CCN(C(=O)c2ccco2)CC1	4	x	x	x	0.68	3	3.2	0.4	x	x
O=C(NCCc1c[nH]c2ccccc12)C(=O)NCC(c1ccco1)N1CCN(c2ccccc2)CC1 (centres undefined)	2	x	x	x	0.66	4	-0.9	-0.8	x	x

Sorted by heavy-atom count (ascending): some entries from above
SMILES	Beta cell apopt	Ecoli rRNA inh	Ecoli rRNA inh OD600	Ecoli rRNA inh RFP	E coli growth	T cruzi repl	UCH37 inh	Bfl-1 A1 inh	MLL AF4-AF9 inh	FGF22 binding
COc1ccc(NC(=O)c2cc3cc(OC)ccc3oc2=N)cc1	5	x	x	x	0.74	14	-0.5	-0.2	x	x
CCCSc1nsc(NC(=O)C(c2ccccc2)c2ccccc2)n1	5	x	x	x	0.76	26	-2.3	-0.5	x	x
CS(=O)(=O)N(CC(=O)Nc1ccccc1Sc1ccccc1)c1ccc(F)cc1	1	x	x	x	0.7	30	0.9	0.7	x	x
CC(=O)[C@@H]1[C@@H](C(=O)c2ccccc2)[C@]2(C(=O)Nc3ccccc32)[C@H]2C=Cc3cc(F)ccc3N12	4	x	x	x	0.69	-3	-0.2	0.4	x	x

(listing goes on)
SMILES	Beta cell apopt	Ecoli rRNA inh	Ecoli rRNA inh OD600	Ecoli rRNA inh RFP	E coli growth	T cruzi repl	UCH37 inh	Bfl-1 A1 inh	MLL AF4-AF9 inh	FGF22 binding
CC(C)C(=O)Nc1ccc2c3c(cccc13)CC2	-5	6	2	-0.3	x	-12	x	-1.5	-7.9	i
CCOC(=O)CSC1=NC(=O)/C(=C/c2ccc(OC)cc2)S1	-19	x	x	x	0.68	-31	6.7	-0.8	x	x
c1ccc(-c2nc3ccccn3c2NCc2ccc3c(c2)OCO3)cc1	1	x	x	x	0.74	18	-236	-1.3	x	x
O=C(Nc1ccccc1N1CCCC1)c1ccccc1F	x	0	-3	-1.3	0.72	-25	5.1	0.7	0.2	x
COc1ccc(C(=O)/C(=C/c2cccs2)c2nc3ccccc3o2)cc1	2	x	x	x	0.75	39	3.7	0.2	x	x
CCOC(=O)c1c(N)c(C#N)c2n1CCCCC2	-5	x	x	x	0.73	21	-0.9	-0.9	x	x
Cc1cc(NC(=O)CSc2nnc(-c3cccnc3)n2Cc2ccccc2)no1	1	9	1	4.1	0.69	1	-0.4	0.9	-1.1	x
O=S1(=O)CCC(NC(=S)N2CCCCCC2)C1 (centres undefined)	-4	x	x	x	0.7	-5	5.4	-0.2	x	x
CNC(=O)CC12CC3CC(CC(C3)C1)C2	-7	4	9	7.4	0.68	-17	3.3	0.5	-57	i
O=C(CCN1CCC(c2ccccc2)C1)c1ccccc1 (centres undefined)	-2	12	8	-9.0	0.67	14	0.1	0.5	6.2	i
O=[N+]([O-])c1cccc(Cl)c1NCCNc1ncc(C(F)(F)F)cc1Cl	4	x	x	x	0.67	25	x	0.7	x	x
FCCCOc1ccc(-c2ccnc3ncnn23)cc1	0	-4	-6	-1.9	0.66	5	i	0.0	-1.5	i
Cc1ccc(C)c(N2CCN(c3nc4ccccc4c(=O)n3Cc3ccccc3)CC2)c1	x	8	2	15	0.72	45	2.8	x	6.3	i
COc1cccc(/C=C2/SC(=S)N(CC(=O)NNC(=O)c3ccccc3O)C2=O)c1	-1	-3	9	-3.2	0.65	-8	5.1	-0.3	-5.6	i
CC1CCCCC1NC(=O)c1cc2ccccc2o1 (centres undefined)	-4	x	x	x	0.67	15	1.3	-0.4	0.0	i
O=C(NN1CCN(Cc2ccccc2Cl)CC1)c1ccc(Br)cc1	0	15	14	-3.8	0.74	-4	1.8	-0.1	-0.8	i
CCOC(=O)c1ccc(NC(=O)COc2ccccc2CNCCO)cc1	-5	2	3	2.3	0.68	x	2.0	-1.0	4.7	i
COc1cc(CCC(=O)Nc2sccc2C#N)cc(OC)c1OC	2	0	2	-1.3	0.62	2	0.9	0.1	0.8	i
CCOc1ccc2nc(NC(=O)C(CC)Sc3nc(C)cc(=O)[nH]3)sc2c1 (centres undefined)	1	x	x	x	0.71	-16	4.0	-1.1	x	x
COc1cccc(C(=O)N2CCC(n3nccc3NC(=O)C(OC)c3ccccc3)CC2)c1 (centres undefined)	x	8	9	-0.4	0.7	2	1.0	1.3	-1.2	i
CCN(CC)C(=O)CSc1ncnc2sccc12	-6	20	8	0.7	0.67	-1	0.4	-0.1	-0.3	i
CC(=O)/C(=C(/O)c1ccccc1)c1nc2ccccc2[nH]1	-3	15	4	1.7	x	-11	x	-0.4	-3.3	x
